Bfl-1 A1 inh: inhibitors of the anti-apoptotic protein A1, read as caspase activation | MEF A1-2A-BIM cells, Caspase-Glo 3/7 luminescence, 3 h; percent of clofoctol response, vehicle zero | caspase activation, % (concentration not given with the values) | hit rate 0.066% among 330,000 | AID 2462;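 active = over half of replicate activation scores above 10%, or exactly half above 10 with the replicate mean above 10; inconclusive = replicate mean below 10 yet half the replicates above 10; inactive = over half of replicates below 10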;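 note: wells of about 30 µL received 50 nL stock; many hits fall short of the cut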
T cruzi repl: T. cruzi replication inhibition | inhibition, % (concentration not given with the values) | AID 1885 | T. cruzi beta-gal in NIH3T3, luminescence, 90 h | hit rate 1.4% among 300,000;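 active = mean inhibition across valid replicates above about 55%, limit read from the data; inconclusive = mean below that limit but half or more replicates reach it; inactive = mean below it, under half of replicates reach it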;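 note: signal also drops with host cell toxicity which is not excluded here; 0% = plate median of DMSO wells and 100% = zero luminescence signal; higher percent means less beta-gal luminescence so fewer parasites; stock transfer was 50 nL into about 50 µL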
Vif TR-FRET: inhibitors of Vif binding to APOBEC3G peptide, primary screen, biochemical, TR-FRET, GST-Vif 1-94, biotin-A3G peptide, dose response retest (AID 1117319) | TR-FRET GST-Vif / biotin-A3G peptide binding; higher % means a stronger effect; test concentration not given here; strong numbers were not always called active | one-dose inhibition, %; IC50 in µM for titrated hits | hit rate 0.57% among 260,000;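 active = above the screen mean plus three standard deviations and confirmed in dose response; inconclusive = results disagree or hit not tested in dose response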;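 note: Vif residues 1-94 fused to GST binding biotinylated APOBEC3G peptide 110-148; 0% = full assay without inhibitor and 100% = GST in place of GST-Vif; retest series ran down from 100 µM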
Calb FLC: affects C. albicans growth with fluconazole | growth inhibition, % (no concentration beside the values) | C. albicans CaCi-2 (fluconazole-resistant clinical isolate) + fluconazole, Alamar Blue growth, 48 h | hit rate 0.57% among 300,000;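 active = most replicates above 75%; inconclusive = exactly half above 75%; inactive = most below 75%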;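 note: all wells also contain fluconazole at 8 µg/ml as a sub-toxic cotreatment; 0% = median of DMSO wells and 100% = median of geldanamycin control wells; wells of about 8 µL received 7.5 nL stock; the first replicate is given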
MLL AF4-AF9 inh: MLL-AF4/AF9 protein interaction inhibition; P42568; AlphaScreen, biotin-AF4 peptide binding to FLAG-AF9; inhibition, % at 10 µM; hit rate 0.47% among 350,000; AID 651704;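 active = every replicate reaching a set inhibition limit, whatever the replicate mean, cut at about 25% in these data; inconclusive = mean inhibition reaches that limit but some replicates miss it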;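 note: 0% = plate neutral control median and 100% = total signal loss; the record names both 10 and 1 µM as test concentration; the first replicate is given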
Beta apoptosis: beta cell apoptosis inhibition; INS-1E cytokine-induced death, ATP luminescence, 48 h; percent of positive-control rescue, neutral wells zero; protection from apoptosis, % (no concentration beside the values); hit rate 0.8% among 300,000; AID 435005;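 active = all replicates at 75% or more, or half of them and the mean; inconclusive = half reach 75% but not the mean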;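 note: 0% = cytokine-treated negative control wells and 100% = positive control rescue; higher means more ATP so stronger rescue from cytokine killing; wells of about 40 µL received 100 nL stock; the first replicate is given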
RanGTP-Imp inh: disruptors of Ran-importin-beta complex formation – biochemical, FRET, CFP-Ran, YFP-importin-beta, homogeneous, primary screen; cell-free CFP-Ran/YFP-importin-beta FRET ratio; inhibition, % (test concentration not listed); hit rate 1.1% among 300,000; AID 2216;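 active = most replicates above 15%; inconclusive = exactly half above 15%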;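 note: 0% = DMSO wells and 100% = Ran loaded with GDP instead of GTP; wells of about 40 µL received 100 nL stock; the first replicate is given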
LANA-H2B inh: blocks KSHV LANA binding to histone H2A/H2B | Q9QR71 | cell-free LANA-H2A/H2B peptide, fluorescence polarization | inhibition, % (concentration not given with the values) | hit rate 0.6% among 320,000 | AID 2629; in the data active = inhibition mostly above about 10%, no sharp cut-off; inactive = mostly below about 6.7%;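 note: stock transfer was 7.5 nL into about 10 µL; 0% = median of vehicle wells and 100% = median of positive control wells; one replicate is shown; the record names a cut of 25% in any replicate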
Target sequence (Q9QR71 whole entry, looked up): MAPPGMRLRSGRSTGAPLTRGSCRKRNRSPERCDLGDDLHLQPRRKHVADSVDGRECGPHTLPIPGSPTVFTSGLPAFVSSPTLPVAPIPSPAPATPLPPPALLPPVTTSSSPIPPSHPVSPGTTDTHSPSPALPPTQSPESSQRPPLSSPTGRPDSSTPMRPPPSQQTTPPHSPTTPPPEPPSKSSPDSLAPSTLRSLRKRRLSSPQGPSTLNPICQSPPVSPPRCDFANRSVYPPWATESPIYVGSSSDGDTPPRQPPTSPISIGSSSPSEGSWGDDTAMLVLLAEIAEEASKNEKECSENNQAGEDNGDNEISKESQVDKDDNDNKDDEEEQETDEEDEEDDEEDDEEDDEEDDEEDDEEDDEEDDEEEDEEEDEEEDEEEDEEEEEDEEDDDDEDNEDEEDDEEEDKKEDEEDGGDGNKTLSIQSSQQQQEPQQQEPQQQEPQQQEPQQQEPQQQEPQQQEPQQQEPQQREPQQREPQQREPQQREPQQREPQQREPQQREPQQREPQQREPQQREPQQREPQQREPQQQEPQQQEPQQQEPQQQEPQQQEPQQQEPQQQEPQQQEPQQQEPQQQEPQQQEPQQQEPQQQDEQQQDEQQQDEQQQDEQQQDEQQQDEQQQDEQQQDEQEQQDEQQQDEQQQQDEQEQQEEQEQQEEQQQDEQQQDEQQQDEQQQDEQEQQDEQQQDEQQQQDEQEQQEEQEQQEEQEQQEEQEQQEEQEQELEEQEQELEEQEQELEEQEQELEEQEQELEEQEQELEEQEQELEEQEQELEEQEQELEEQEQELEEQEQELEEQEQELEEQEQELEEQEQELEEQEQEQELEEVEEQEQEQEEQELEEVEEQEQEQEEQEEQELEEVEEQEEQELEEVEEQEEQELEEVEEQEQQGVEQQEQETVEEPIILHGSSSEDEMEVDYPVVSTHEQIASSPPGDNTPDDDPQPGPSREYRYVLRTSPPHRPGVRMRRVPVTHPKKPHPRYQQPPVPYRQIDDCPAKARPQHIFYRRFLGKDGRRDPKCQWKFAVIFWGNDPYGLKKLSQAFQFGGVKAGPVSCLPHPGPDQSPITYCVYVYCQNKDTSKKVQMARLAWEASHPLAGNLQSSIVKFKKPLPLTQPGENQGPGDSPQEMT
* marks the source's active call; other numbers are inactive results; ? = inconclusive; · = not tested or not shown.

SMILES	Bfl-1 A1 inh	T cruzi repl	Vif TR-FRET	Calb FLC	MLL AF4-AF9 inh	Beta apoptosis	RanGTP-Imp inh	LANA-H2B inh
CN1CCN(C(CNS(=O)(=O)c2cccs2)c2cccnc2)CC1 (stereo not drawn)	0.1	29	-3%	-9	-9.2	-2	4.9	-5.2
COc1ccc(N(C(=O)c2ccco2)C(C(=O)NC2CCCC2)c2ccccc2)cc1 (stereo not drawn)	0.2	9	·	-13	0.6	-7	-3.6	-2.9
O=[N+]([O-])c1cccc(-c2noc(COc3ccccc3)n2)c1	-1.2	-1	-2%	-7	-2.1	-1	·	-3.7
O=C(Cc1ccc(Cl)c(Cl)c1)Nc1cccnc1	0.0	-8	·	0	-2.6	-2	-4.6	-1.5
CC(OC(=O)CN1C(=O)NC2(CCCC2)C1=O)C(=O)c1ccc(C(C)(C)C)cc1 (stereo not drawn)	-0.1	2	1%	5	1.8	-1	-3.2	5.5
O=C(CSc1nnc(NC(=O)c2ccc(F)cc2)s1)NCc1ccco1	-5.9	-8	3%	·	-1.2	-1	·	-6.4
CN1CCN(/N=C/c2ccc(N(C)c3ccccc3)cc2)CC1	0.1	45	4%	9	5.4	-3	0.0	2.4
O=C(NCc1ccccc1)C(c1ccccc1)N(C(=O)c1csnn1)C1CC1 (stereo not drawn)	0.5	-4	0%	6	-1.7	0	8.6	-3.2
COc1cc(C(=O)NCCc2cn3ccc(C)cc3n2)cc(OC)c1OC	1.4	-12	0%	-2	-10	-5	9.8	2.2
O=C(c1ccccc1-c1ccccc1)N1CCN(c2ccccn2)CC1	0.6	-35	0%	-2	·	30	4.9	-1.8
COc1cccc(CNc2ccc(F)c(Cl)c2)c1OC	0.1	2	8%	6	4.1	10	1.4	0.1
O=C(NC(Cc1ccccc1)C(=O)O)/C(=C/c1cccc(Br)c1)NC(=O)c1ccco1 (stereo not drawn)	-0.8	1	2%	-2	-2.4	-6	11	4.1

4 compounds already listed, arranged by number of heavy atoms, low to high.
SMILES	Bfl-1 A1 inh	T cruzi repl	Vif TR-FRET	Calb FLC	MLL AF4-AF9 inh	Beta apoptosis	RanGTP-Imp inh	LANA-H2B inh
CN1CCN(/N=C/c2ccc(N(C)c3ccccc3)cc2)CC1	0.1	45	4%	9	5.4	-3	0.0	2.4
O=C(c1ccccc1-c1ccccc1)N1CCN(c2ccccn2)CC1	0.6	-35	0%	-2	·	30	4.9	-1.8
CC(OC(=O)CN1C(=O)NC2(CCCC2)C1=O)C(=O)c1ccc(C(C)(C)C)cc1 (stereo not drawn)	-0.1	2	1%	5	1.8	-1	-3.2	5.5
O=C(NC(Cc1ccccc1)C(=O)O)/C(=C/c1cccc(Br)c1)NC(=O)c1ccco1 (stereo not drawn)	-0.8	1	2%	-2	-2.4	-6	11	4.1

Going on with the list:
SMILES	Bfl-1 A1 inh	T cruzi repl	Vif TR-FRET	Calb FLC	MLL AF4-AF9 inh	Beta apoptosis	RanGTP-Imp inh	LANA-H2B inh
CCCn1nc(C(=O)OCC(=O)c2ccccc2)c2ccccc2c1=O	-0.1	-4	2%	-7	-4.7	-2	1.3	2.9
COCCNC(=S)N1CCN(c2cccc(C)c2C)CC1	1.1	4	-2%	-4	1.2	-8	1.3	-7.9
O=C(c1ccc(Br)o1)N1CC=C(c2ccccc2)CC1	0.4	·	-3%	·	5.6	0	·	-4.5
O=C(Nc1ccccc1N1CCOCC1)C1CCN(S(=O)(=O)c2cccc(C(F)(F)F)c2)CC1	0.8	7	-2%	-9	·	-2	-4.7	2.4
COc1ccc(CN2CCC(n3nccc3NC(=O)CCOc3ccccc3)CC2)cc1C	-1.0	15	-5%	13	7.2	-3	-0.6	-0.7
COc1cccc(C(=O)Nc2sc3c(c2C(=O)O)CCCC3)c1	-6.4	-24	·	25	-0.7	-4	5.1	-0.3
CC(=O)c1ccc(N(CC(=O)NC2CCCCC2)C(=O)CNC(=O)c2ccco2)cc1	-0.5	-6	·	2	-0.2	1	5.1	4.3
CC(C)N(C(=S)Nc1ccc(S(=O)(=O)N2CCOCC2)cc1)c1ccccc1	0.0	·	·	·	-0.8	-8	·	4.6
O=C1CSC(c2ccccc2)N1c1ccc([N+](=O)[O-])cc1 (stereo not drawn)	-0.1	-26	·	21	1.4	·	0.6	-3.0
CCOC(=O)c1csc(NC(=O)CSc2nnnn2-c2ccc3c(c2)OCCO3)n1	0.4	9	-15%	-9	·	-8	3.6	2.5
Cc1cccn2c(=O)nc(SCC(=O)N3CCC(Cc4ccccc4)CC3)nc12	-0.8	18	5%	-7	-1.4	·	8.2	3.3
O=C(O)c1ccc(SCc2cnc(Cl)s2)cc1	0.4	-10	-13%	13	·	-6	-3.3	-1.1
CS(=O)(=O)CCSc1ncccc1C(=O)NCc1cccs1	1.5	-32	5%	5	0.7	-4	0.6	2.8
Cc1ccccc1N1Cc2ccccc2C1	0.3	-12	?	4	1.8	3	2.1	-0.4
Cc1csc(SCC(=O)Nc2cc(C(C)(C)C)nn2-c2ccccc2)n1	0.7	-1	1%	4	·	3	-2.4	-4.8
O=C(Cn1nnc(-c2ccccc2F)n1)NCc1ccco1	0.2	-11	10%	8	0.3	-2	7.3	2.3
Cc1ccc(S(=O)(=O)N2CCN(C(=O)[C@H](Cc3ccccc3)NC(=O)c3ccco3)CC2)cc1C	0.4	·	6%	·	-11	2	·	-2.1
O=C1C2C3C=CC(CC3)C2C(=O)N1c1ccccc1 (stereo not drawn)	-0.6	-10	·	-1	-0.8	-7	-3.8	-3.6
Cc1cccc(NC(=O)C(=O)NCCCN2CCOCC2)c1	0.3	-5	26%	1	-6.4	0	2.6	5.5
Cc1cc(=O)oc2cc(O)c(N=Nc3ccccc3)cc12	-1.8	-8	-7%	8	-0.3	-13	-1.0	1.9
CCOC(=O)c1c(C)[nH]c(C)c1S(=O)(=O)N1CCN(c2ccc([N+](=O)[O-])cc2)CC1	0.1	19	-1%	-8	1.4	-13	-2.1	-0.1
CC1CCCC(NC(=O)Cn2cc(Br)ccc2=O)C1C (stereo not drawn)	0.8	·	·	·	2.2	-2	·	-0.6
CCN1CCc2c(sc(NC(=O)c3cc4ccccc4cc3OC)c2C(N)=O)C1	0.1	58*	-43%	·	11	21	·	-14
COc1ccc(-n2ncc3c2CC(C)(C)CC3NC(=O)c2ccnn2C)cc1 (stereo not drawn)	1.3	-15	·	-4	2.0	-3	0.6	-4.8
Cc1ccccc1Nc1nc(N)nc(COc2ccc(C#N)cc2)n1	0.3	13	-10%	-10	0.5	7	1.1	2.8
Cc1cc(NC(=O)C2COc3ccccc3O2)no1 (stereo not drawn)	-1.4	-12	?	-2	-0.6	-5	-0.6	-3.9
CCOc1ccccc1CN1CCN(Cc2ccc3cccc(OC)c3n2)CC1CCO (stereo not drawn)	-0.3	31	·	-3	1.9	·	0.8	2.2
CC1=C(C(=O)Nc2ccccc2F)C(c2cccs2)NC(=S)N1 (stereo not drawn)	0.4	-4	·	16	-2.2	-5	0.6	5.8
COc1ccc(NC(=O)c2cc([N+](=O)[O-])ccc2N2CCN(C)CC2)cc1	0.3	-3	·	12	1.9	-4	3.1	2.2
Cc1ccc(CN(c2ccc(C(=O)NCc3ccc4c(c3)OCO4)cc2)S(C)(=O)=O)cc1	0.1	14	0%	-9	·	6	-1.9	-13
CN1CCN(C(=S)c2cn(Cc3cccc(F)c3)c3ccccc23)CC1	-0.1	-10	-3%	15	11	0	0.0	2.8
CN1CCN(c2ncccc2S(=O)(=O)N2CCCCC2)CC1	0.1	14	24%	1	·	-14	-1.6	2.0
Cc1cccc(C(=O)NCC(=O)N2CCN(S(=O)(=O)c3ccccc3)CC2)c1	0.2	-15	1%	2	1.5	-1	0.7	3.4
COc1ccc(OC)c(NC(=O)c2cnn(-c3ccccc3Cl)c2NC(=O)c2ccco2)c1	·	14	0%	11	·	·	0.9	·
Cc1cc(-c2ccccc2)nc2[nH]n(-c3ccccc3)c(=O)c12	0.5	-25	5%	21	·	-5	-0.3	-7.0
CCCc1cc(=O)oc2cc(OC(C)C(=O)NCc3ccccn3)c(Cl)cc12 (stereo not drawn)	-1.1	8	·	-10	-5.1	-2	0.4	-3.6
CCCOc1ccc(NC(=O)C2CC(=O)N/C(=N/N=C(\C)CCc3ccc4c(c3)OCO4)S2)cc1 (stereo not drawn)	2.1	7	7%	21	·	-6	?	3.6
CN1C(c2ccccc2)CCOS1(=O)=O (stereo not drawn)	1.0	-8	·	5	-8.9	-4	1.0	4.2
COc1ccccc1CN1CC(=O)N2CSC[C@H]2C1=O	0.5	-6	0%	16	-1.2	6	1.1	-2.1
O=C(NCCSCc1ccco1)c1ccc(=O)[nH]c1	0.8	-9	·	10	-4.3	-3	-2.0	4.1
O=C(COC(=O)c1ccncc1)NCCCc1ccccc1	-1.1	-10	-8%	·	2.0	-4	·	-0.6
Cc1ccc(-c2nnc3n2N=C(c2ccc(Br)cc2)CS3)cc1	-1.0	31	14%	12	-3.8	6	-3.1	0.3
COc1cccc(OCc2nnc(SCC(=O)NCc3ccco3)n2C)c1	-0.2	6	4%	1	·	-3	-1.4	-17
Cc1ccc(C)c(NC(=O)CCCCCN2C(=O)[C@@H]3Cc4ccccc4CN3C2=O)c1	0.2	3	·	10	-0.8	0	1.9	-2.6
O=C(CCCN1C(=O)c2ccccc2C1=O)Oc1ccc(F)cc1	1.6	-17	10%	0	·	-1	-0.9	6.0
O=C(NCN1CCc2ccccc2C1)c1ccccc1	-0.5	14	3%	30	·	-9	1.3	1.9
CCOC(=O)c1cccc(NC(=O)CSc2nnc(COc3ccc(Cl)cc3)o2)c1	-1.3	-1	-1%	-6	·	-6	2.0	2.7
O=c1[nH]cc(S(=O)(=O)N2CCN(c3cccc(C(F)(F)F)c3)CC2)c(=O)[nH]1	0.2	-2	2%	1	-1.6	·	-0.8	0.2
O=S(=O)(c1ccc(F)cc1)N(CCO)CC(O)Cn1c2ccccc2c2ccccc21 (stereo not drawn)	0.6	33	73%	15	·	-5	5.9	-0.8
O=C(Nc1cc2c(cc1Cl)OCCO2)c1ccco1	-2.7	2	·	7	·	-1	-1.0	-2.6
O=C(NC(Cc1ccccc1)C(=O)O)/C(=C\c1ccccc1)NC(=O)c1ccc(Br)o1 (stereo not drawn)	2.3	-12	·	2	-2.6	·	7.9	-3.0
CC(CC1CC(C)(C)OC1=O)C(=O)Nc1ccc([N+](=O)[O-])cc1 (stereo not drawn)	0.0	3	·	-6	1.5	·	-5.2	5.7
CCOc1ccc(NC(=O)COC(=O)CN2CCCCCC2=O)cc1	1.7	·	-9%	·	2.9	-9	·	-1.2
CC(=O)NC1CCN(C(=O)N2CCCC2)CC1	0.4	0	4%	-5	·	-1	-4.7	1.8
COc1ccc(CN2CCCC(C(=O)N3CCCC3)C2)cc1 (stereo not drawn)	0.9	45	4%	-4	·	-7	-0.1	5.8
Cc1ccccc1-c1nnc(SCC(=O)c2c(N)n(C3CC3)c(=O)[nH]c2=O)o1	0.6	·	13%	·	4.4	-1	·	5.6

Assay outcomes (PubChem)
